Screening results (PubChem)
DUX4 txn inh – blocks DUX4-driven transcriptional activation; 293T-iDUX4 ZSCAN4-Gaussia luciferase reporter, 24 h; stronger effect = lower value; activity change, negative = inhibition, % (test concentration not listed); 37,000 tested, 0.8% active; AID 1224904;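 active = -10% or lower and over 25 points stronger than a control reporter; inconclusive = -10% or lower with a smaller gap; inactive = above -10%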;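 also: 0% = median of neutral control wells and -100% = median of positive control wells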
DUX4 txn inh difference – also measured in DUX4 txn inh; calls as there; Gaussia minus Italica difference, %; measured here: selective DUX4 reporter inhibition;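 worked out from the two reporters; negative = selective loss of the DUX4 reporter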
DUX4 txn inh control – further read-out of DUX4 txn inh, marked with its call; activity change, negative = inhibition, %; measured here: Italica tet-on control reporter;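 0 = neutral control and -100 = positive control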
* hit, by the source's call; ? = inconclusive; / = no result given; & = joins results of further samples.

[1] Cc1noc(C)c1C(=O)N(C)C[C@H]1OCc2ccccc2-c2ccccc2C(=O)N([C@@H](C)CO)C[C@@H]1C
[2] C[C@@H]1CN([C@H](C)CO)S(=O)(=O)c2ccc(Br)cc2O[C@H]1CN(C)Cc1cncnc1
[3] CC(C)CC#Cc1ccc([C@@H]2[C@@H](CO)N3CCCCN(S(=O)(=O)c4ccc(F)cc4)C[C@@H]23)cc1
[4] C[C@@H]1CN([C@H](C)CO)C(=O)CCCn2cc(nn2)CO[C@H]1CN(C)S(=O)(=O)c1cccs1
[5] C[C@@H]1CN([C@H](C)CO)C(=O)c2c(c3ccccc3n2C)-c2ccccc2CO[C@@H]1CN(C)C(=O)CCN(C)C
[6] O=C(C[C@H]1C[C@@H]2c3cc(NS(=O)(=O)c4ccc(F)cc4)ccc3O[C@@H]2[C@H](CO)O1)N1CCCCC1
[7] CO[C@H]1CN(C)C(=O)c2cc(NC(=O)NC3CCCCC3)ccc2OC[C@@H](C)N(CC2CCOCC2)C[C@H]1C
[8] CN(C)C(=O)c1cccc(-c2ccc(C3[C@H]4CNC[C@@H]3N4CC3CCCCC3)cc2)c1 (stereo not given in full)
[9] N#Cc1ccc(-c2ccc3c(c2)[C@@H]2[C@@H](CCN2S(=O)(=O)c2cccc(F)c2)[C@@H](CO)N3)cc1
[10] O=C(C[C@@H]1C[C@@H]2c3cc(NC(=O)C4CCC4)ccc3O[C@@H]2[C@H](CO)O1)NCC1CC1

entry no.,1,2,3,4,5,6,7,8,9,10
DUX4 txn inh,-5,-1,?,6,12,-2,-5,-2&5,4,10
DUX4 txn inh difference,-14,-1,/,5,9,-6,-5,-8&7,4,2
DUX4 txn inh control,8.9,-0.5,/,0.7,3.0,3.8,0.0,5.6&-2.5,0.1,7.4

[11] O=C(C[C@H]1CC[C@H]2[C@@H](COC[C@H](O)CN2C(=O)Nc2ccc(F)cc2)O1)NC1CCC1
[12] CN(C)C(=O)c1cccc(-c2ccc(C3[C@@H]4CN(C(=O)Nc5ccccc5F)C[C@H]3N4)cc2)c1 (stereo not given in full)
[13] COc1ccc(NC(=O)N(C)C[C@H]2OCc3ccccc3-c3c(n(C)c4ccccc34)C(=O)N([C@H](C)CO)C[C@H]2C)cc1
[14] O=C(C1CCOCC1)N1CC(=O)N2[C@H](C1)[C@@H](c1ccc(/C=C/c3ccccc3)cc1)[C@@H]2CO
[15] C[C@@H]1CCCCO[C@H](CN(C)C(=O)CCCN(C)C)[C@H](C)CN([C@H](C)CO)C(=O)c2cc(NC(=O)CCC(F)(F)F)ccc2O1
[16] COCC(=O)N1[C@H](C#N)[C@H](c2ccccc2-c2cccc(F)c2)[C@@H]1CO
[17] COc1cccc(-c2ccc3c(c2)[C@@H]2[C@@H](CCN2S(=O)(=O)C2=NC(C)C=N2)[C@H](CO)N3C)c1 (stereo not given in full)
[18] CN(C)CC#Cc1ccc([C@H]2[C@@H](CO)N3CCCCN(C(=O)C4CCC4)C[C@@H]23)cc1
[19] COC(=O)C[C@@H]1CC[C@H]2[C@@H](COc3ccc(NC(=O)c4cccc(Cl)c4)cc3C(=O)N2C)O1
[20] COc1ccc2c3c([nH]c2c1)[C@H](CO)N(C(=O)c1ccc(F)cc1)CC31CCN(C(=O)CC2CC2)CC1

entry no.,11,12,13,14,15,16,17,18,19,20
DUX4 txn inh,1,3&17,10,?,-3,5,10,28,0,6
DUX4 txn inh difference,-3,3&20,8,/,-1,-6,13,14,-1,13
DUX4 txn inh control,4.5,-0.7&-3.4,1.9,/,-2.6,10,-2.6,13,0.9,-7.6

4 compounds from above, reduced to DUX4 txn inh:
#	smiles	DUX4 txn inh
17	COc1cccc(-c2ccc3c(c2)[C@@H]2[C@@H](CCN2S(=O)(=O)C2=NC(C)C=N2)[C@H](CO)N3C)c1 (stereo not given in full)	10
18	CN(C)CC#Cc1ccc([C@H]2[C@@H](CO)N3CCCCN(C(=O)C4CCC4)C[C@@H]23)cc1	28
19	COC(=O)C[C@@H]1CC[C@H]2[C@@H](COc3ccc(NC(=O)c4cccc(Cl)c4)cc3C(=O)N2C)O1	0
20	COc1ccc2c3c([nH]c2c1)[C@H](CO)N(C(=O)c1ccc(F)cc1)CC31CCN(C(=O)CC2CC2)CC1	6

The list goes on:
[21] CN(C)C(=O)c1ccc(-c2ccc([C@H]3[C@H](C#N)N(C(=O)C4CCC4)[C@H]3CO)cc2)cc1
[22] COc1ccc(-c2ccc([C@H]3[C@H](CO)N[C@@H]3C#N)cc2)cc1
[23] CCCNC(=O)Nc1ccc2c(c1)C(=O)N(C)C[C@H](OC)[C@H](C)CN(Cc1cccnc1)[C@H](C)CO2
[24] C[C@@H]1CN([C@@H](C)CO)C(=O)CCCn2nncc2CO[C@H]1CN(C)Cc1cccc(C(=O)O)c1
[25] C[C@@H]1CN([C@@H](C)CO)C(=O)c2cc(C#Cc3cccnc3)cnc2O[C@@H]1CN(C)S(C)(=O)=O
[26] NCC[C@H]1CC[C@H](NC(=O)NC2CCCCC2)[C@H](CO)O1
[27] CNC(=O)C[C@@H]1CC[C@H]2[C@H](COc3ccc(NC(=O)Nc4ccc(Cl)cc4)cc3C(=O)N2C)O1
[28] C[C@@H]1CN([C@@H](C)CO)C(=O)c2ccccc2-c2ccccc2CO[C@@H]1CN(C)C(=O)Nc1ccccc1C(F)(F)F
[29] COc1cccc(S(=O)(=O)N(C)C[C@H]2OCc3cn(nn3)CCCC(=O)N([C@@H](C)CO)C[C@@H]2C)c1
[30] O=C(NCCc1ccncc1)[C@@H]1[C@@H](CO)[C@@H]2Cn3c(ccc(-c4cccnc4)c3=O)[C@@H]2N1C(=O)C1CC1

entry no.,21,22,23,24,25,26,27,28,29,30
DUX4 txn inh,?,1,8,-1,0,?,-2,5,2,15
DUX4 txn inh difference,/,0,7,-5,-4,/,-3,9,1,12
DUX4 txn inh control,/,1.4,1.5,3.6,4.5,/,1.5,-4.3,0.9,3.4

The listing continues.
nr	canonical_smiles	DUX4 txn inh	DUX4 txn inh difference	DUX4 txn inh control
31	C/C=C/c1ccc(C2[C@H]3CNC[C@@H]2N3C(=O)Nc2cccc(OC)c2)cc1 (stereo not given in full)	11&15	14&13	-3.4&2.1
32	C[C@@H]1CN([C@@H](C)CO)C(=O)Cc2cc(NS(=O)(=O)c3ccc(F)cc3)ccc2O[C@@H]1CN(C)Cc1ccncc1	-4	-10	6.2
33	O=C(C[C@@H]1CC[C@H]2NC[C@H](O)COC[C@@H]2O1)NCCc1ccccc1	13	15	-2.9
34	COC(=O)C[C@@H]1C[C@@H]2c3cc(NC(=O)CN(C)C)ccc3O[C@@H]2[C@@H](CO)O1	-1	-2	0.9
35	C[C@H]1CN([C@@H](C)CO)C(=O)c2cc(N(C)C)ccc2O[C@@H]1CN(C)S(=O)(=O)c1cccs1	1	-1	2.5
36	COC(=O)C[C@H]1CC[C@H]2[C@H](COc3ccc(NC(=O)Cc4cccs4)cc3C(=O)N2C)O1	0	-2	1.8
37	O=C(C[C@@H]1CC[C@@H]2[C@H](COC[C@H](O)CN2Cc2nccs2)O1)NCc1ccc(-c2ccccc2)cc1	?	/	/
38	O=C(C1CCOCC1)N1CC(=O)N2[C@H](CO)[C@@H](c3ccc(C#CCc4ccccc4)cc3)[C@@H]2C1	-6	-6	0.2
39	C[C@H](CO)N1C[C@H](C)[C@H](CN(C)CC2CCCCC2)Oc2ccc(NS(=O)(=O)c3cn(C)cn3)cc2C1=O	-1	-3	1.3
40	COCCNC(=O)C[C@H]1C[C@H]2c3cc(NC(=O)Nc4ccc(C(F)(F)F)cc4)ccc3O[C@H]2[C@@H](CO)O1	3	4	-1.4
41	C[C@H]1CN([C@@H](C)CO)C(=O)CCCn2nncc2CO[C@H]1CN(C)Cc1cccc(C(=O)O)c1	3	4	-0.7
42	C[C@H]1CN([C@@H](C)CO)C(=O)c2cccc(NS(C)(=O)=O)c2O[C@H]1CN(C)Cc1ccc(-c2ccccc2)cc1	-4	-1	-2.4
43	Cc1noc(C)c1NC(=O)Nc1ccc2c(c1)C(=O)N([C@H](C)CO)C[C@H](C)[C@H](CN(C)Cc1ccc3c(c1)OCO3)OCCCC[C@@H](C)O2	3	2	1.1
44	C[C@@H]1CN([C@@H](C)CO)C(=O)CCCn2nncc2CO[C@@H]1CN(C)S(=O)(=O)c1cccs1	0	0	-0.1
45	CCN1[C@H](C(=O)NCCc2cn(C)cn2)[C@@H](CO)[C@@H]2Cn3c(ccc(-c4ccncc4)c3=O)[C@@H]21	0	-4	3.5
46	CC(=O)N1CC[C@@H]2[C@H]1c1cc(-c3cccc(F)c3)ccc1N(C)[C@H]2CO	22	7	16
47	COc1cccc(CN2CC3(CCN(S(C)(=O)=O)CC3)c3c(n(C)c4cc(OC)ccc34)[C@H]2CO)c1	2	6	-3.5
48	CC(C)CC#Cc1ccc([C@H]2[C@H]3CN(S(=O)(=O)c4ccccc4)CC(=O)N3[C@H]2CO)cc1	?	/	/
49	COc1ccc(NC(=O)Nc2ccc3c(c2)[C@H]2C[C@H](CC(=O)O)O[C@H](CO)[C@H]2O3)cc1	2	-1	2.9
50	O=C(C[C@H]1CC[C@@H]2[C@H](COC[C@@H](O)CN2Cc2cc(F)ccc2F)O1)N1CCc2ccccc2C1	-1	1	-2.5
51	CCCC(=O)Nc1ccc2c(c1)C(=O)N(C)C[C@@H](OC)[C@@H](C)CN(C(=O)CC1CC1)[C@H](C)CO2	1	-2	3.2
52	O=C(c1cc2c(c(-c3cccc(-c4ccc(F)cc4)c3)n1)[C@@H](CCO)N(C(=O)c1ccc3c(c1)OCO3)C2)N1CCOCC1	-3	0	-2.9
53	Cc1noc(C)c1NC(=O)Nc1ccc2c(c1)C(=O)N(C)[C@H]1CC[C@@H](CC(=O)N[C@H]3CCN(Cc4ccccc4)C3)O[C@@H]1CO2	-2	1	-2.4
54	COCc1cn(CC[C@@H]2CC[C@@H](NC(=O)c3ccc(F)cc3)[C@@H](CO)O2)nn1	1	2	-0.8
55	CCN(C[C@H]1[C@@H](c2ccc(-c3ccccc3F)cc2)[C@@H](CO)N1C(C)=O)C(C)=O	0	2	-1.9

A few values from the entries so far.
For DUX4 txn inh control, no. 31 is listed with -3.4&2.1
For DUX4 txn inh control, no. 36 is listed with 1.8
For DUX4 txn inh control, no. 47 is listed with -3.5

Additional structures follow:
nr	canonical_smiles	DUX4 txn inh	DUX4 txn inh difference	DUX4 txn inh control
56	COCC(=O)N1C[C@@H](C)[C@H](OC)CN(C)C(=O)c2ccc(NC(=O)c3cc(C)on3)cc2OC[C@H]1C	-5	-4	-0.9
57	O=C(N[C@H]1CC[C@@H](CCNS(=O)(=O)c2ccc(Cl)cc2)O[C@@H]1CO)c1ccccn1	2	1	1.5
58	CC(C)(O)C#Cc1ccc([C@H]2[C@@H](CO)N3CCCCN(C(=O)c4cccnc4)C[C@H]23)cc1	3	-1	4.3
59	CO[C@H]1CC[C@@H]2CCN(C)C(=O)[C@@H](C)[C@@H](OC)CN(C)C(=O)c3cc(C#N)ccc3OC[C@@H]1O2	-6	-1	-4.8
60	C[C@H](NC(=O)C[C@H]1C[C@@H]2c3cc(NS(C)(=O)=O)ccc3O[C@@H]2[C@@H](CO)O1)c1ccccc1	6	4	2.3
61	C/C=C/c1ccc([C@H]2[C@@H](C#N)N(C(=O)NC3CCCCC3)[C@H]2CO)cc1	-4	-7	2.5
62	CN1C(=O)c2cc(NC(=O)Cc3ccccc3)ccc2OC[C@@H]2O[C@@H](CC(=O)O)CC[C@H]21	5	24	-18
63	CCC(=O)N1[C@H](CO)[C@H](c2ccc(-c3cccc(OC)c3)cc2)[C@H]1CNC(C)=O	0	-10	9.4
64	CCCC#Cc1ccc([C@H]2[C@@H](CO)N3CCCCN(Cc4ccncc4)C[C@H]23)cc1	10	7	3.1
65	COCC(=O)NC[C@@H]1[C@H](c2ccccc2)[C@@H](CO)N1C(=O)c1ccccc1	1	-1	1.6
66	O=C(C[C@@H]1CC[C@H]2[C@@H](COC[C@H](O)CN2C(=O)c2ccccc2F)O1)NCc1ccc(-c2ccccc2)cc1	0	9	-9.5
67	O=C(c1ccccn1)N1C[C@H]2[C@@H](c3ccccc31)[C@H](CO)N2C(=O)Cc1ccccc1	-6	-5	-1.1
68	O=C(O)C[C@H]1C[C@@H]2c3cc(NC(=O)c4ccc5c(c4)OCO5)ccc3O[C@@H]2[C@H](CO)O1	-2	-1	-1.4
69	COc1ccccc1C#Cc1cnc2c(c1)C(=O)N([C@@H](C)CO)C[C@@H](C)[C@H](CN(C)S(=O)(=O)c1cn(C)cn1)O2	8	6	2.0
70	Cc1cccc(CN(C)C[C@@H]2OCc3cnnn3CCCC(=O)N([C@H](C)CO)C[C@@H]2C)c1	-3	2	-5.0
71	O=C(NCC[C@H]1CC[C@@H](NC(=O)c2ccccc2F)[C@@H](CO)O1)c1cnccn1	0	-3	3.2
72	O=C(CN1CCOCC1)NCC[C@@H]1CC[C@@H](NS(=O)(=O)c2ccc(Cl)cc2)[C@@H](CO)O1	9	5	3.6
73	O=C(Cc1ccccn1)N1CC2(C1)[C@H](c1ccccc1)[C@H](CO)N2C(=O)c1cccnc1	3	-4	6.7
74	Cc1ccc(S(=O)(=O)N(C)C[C@H]2Oc3ccc(NC(=O)CCCN(C)C)cc3C(=O)N([C@H](C)CO)C[C@@H]2C)cc1	-2	-3	0.6

Four entries already listed, arranged by their value in DUX4 txn inh difference, high to low:
no. | Molecule | DUX4 txn inh difference
52 | O=C(c1cc2c(c(-c3cccc(-c4ccc(F)cc4)c3)n1)[C@@H](CCO)N(C(=O)c1ccc3c(c1)OCO3)C2)N1CCOCC1 | 0
15 | C[C@@H]1CCCCO[C@H](CN(C)C(=O)CCCN(C)C)[C@H](C)CN([C@H](C)CO)C(=O)c2cc(NC(=O)CCC(F)(F)F)ccc2O1 | -1
24 | C[C@@H]1CN([C@@H](C)CO)C(=O)CCCn2nncc2CO[C@H]1CN(C)Cc1cccc(C(=O)O)c1 | -5
16 | COCC(=O)N1[C@H](C#N)[C@H](c2ccccc2-c2cccc(F)c2)[C@@H]1CO | -6

This is a subset, so the mix of outcomes need not match the whole.
